Assay outcomes (PubChem)
miR-21 FLuc: qHTS Assay for Modulators of miRNAs and/orActivators of miR-21. AID 2288, 2010. Potency, µM (series often up to 38.3 µM), inactives show top-dose reporter change, positive = more light. HeLa miR-21 FLuc reporter, luciferase, 48 h. 340,000 tested, under 10 active; active = well fitted rising curve with a large enough effect; inconclusive = small, poorly fitted or top-dose-only effect; inactive = no such curve, though single readings can be large or run the other way;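 also: % of control where 0% means no effect; miR-21 action dims this reporter so a rising signal means less miR-21 action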
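HeLa cells endogenously expressing miR-21, stably carrying CMV-driven firefly luciferase with a downstream miR-21 binding site, 2000 cells/well. Titrations up to approximately 40 uM, 48 hours; luciferase luminescence read.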
Rango-impB inh: qHTS Assay for Inhibitors of Rango (Ran-regulated importin-beta cargo) - Importin beta complex formation | Importin subunit beta-1 (Homo sapiens), Q14974 | Rango CFP/YFP FRET sensor + importin beta, 45 min | Potency, µM (highest dose often 92.2 µM), without a hit: at the highest dose inhibition of complex formation | 340,000 compounds, 0.031% hits; active = rising FRET ratio curve, often small or poorly fitted; inconclusive = mostly compound fluorescence or quenching in the first reads; inactive = flat curves in all reads;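 also: potency is read from the fitted curve at half-maximal effect; 0% = DMSO wells and 100% = buffer wells lacking importin beta; nearly all actives have a fitted effect of over 15% in size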
Target sequence (Q14974 whole entry, looked up): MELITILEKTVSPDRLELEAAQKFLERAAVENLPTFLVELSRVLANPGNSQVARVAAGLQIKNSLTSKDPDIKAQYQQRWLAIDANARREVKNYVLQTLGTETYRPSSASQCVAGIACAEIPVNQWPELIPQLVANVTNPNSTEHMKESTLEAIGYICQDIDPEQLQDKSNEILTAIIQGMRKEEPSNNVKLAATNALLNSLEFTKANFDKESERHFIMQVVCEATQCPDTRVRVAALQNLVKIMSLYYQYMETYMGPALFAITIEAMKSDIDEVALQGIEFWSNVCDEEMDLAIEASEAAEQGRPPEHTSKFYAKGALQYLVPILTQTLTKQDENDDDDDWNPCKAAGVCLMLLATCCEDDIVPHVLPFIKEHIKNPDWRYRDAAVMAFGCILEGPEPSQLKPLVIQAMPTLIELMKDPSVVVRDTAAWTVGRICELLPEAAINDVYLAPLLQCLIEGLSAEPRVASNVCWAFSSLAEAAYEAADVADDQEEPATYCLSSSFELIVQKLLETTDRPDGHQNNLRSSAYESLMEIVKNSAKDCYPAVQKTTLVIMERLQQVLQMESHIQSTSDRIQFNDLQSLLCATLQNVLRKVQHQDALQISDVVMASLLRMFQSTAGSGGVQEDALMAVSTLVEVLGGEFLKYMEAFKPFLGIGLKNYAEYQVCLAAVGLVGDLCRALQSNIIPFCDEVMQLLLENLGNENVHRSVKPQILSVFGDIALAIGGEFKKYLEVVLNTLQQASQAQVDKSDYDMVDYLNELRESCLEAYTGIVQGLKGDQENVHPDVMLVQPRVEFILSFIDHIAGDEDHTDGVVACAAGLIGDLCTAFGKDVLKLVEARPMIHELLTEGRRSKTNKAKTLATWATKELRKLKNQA
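FRET biosensor (snurportin 1 IBB flanked by EYFP and cerulean), 50 nM, with compound 5 min, then 0.125 microM importin beta in PBS, 1 mM DTT, 0.02% Tween-20, 0.1% BSA. CFP/YFP ratio read after 45 min at room temperature; pre-read flags interference.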
Rango dissoc inh: qHTS Assay for Inhibitors of RanGTP induced Rango (Ran-regulated importin-beta cargo) - Importin beta complex dissociation. Snurportin-1 (Homo sapiens) + GTP-binding nuclear protein Ran (Homo sapiens) + Importin …. Biochemical FRET Rango-importin beta, RanGTP-induced dissociation. Potency, µM (doses to about 46.1 µM), inactives show at the top dose activity change, negative = inhibition. 340,000 compounds, 0.071% hits; active means falling FRET ratio curve, often poorly fitted, with flat reads before Ran was added; inconclusive means other falling curves, or compound fluorescence or quenching; inactive means flat or rising ratio curve;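 also: potency is read from the fitted curve at half-maximal effect; % of control where 0% means no effect; nearly all actives have a fitted effect of over 45% in size; -100% = wells without RanGTP and RCC1; the record marks most hits as doubtful in a second field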
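Two FRET readings bracket the reaction: one 5 min after compound meets Rango–importin beta, another 45 min after RanGTP-RCC1 (0.6 uM Ran, 0.2 uM RCC1, 2 mM GTP) is added. Only the second defines inhibition.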
GLA inh pH 4.5: qHTS Assay for Inhibitors of Human alpha-Galactosidase at pH 4.5; activity change, negative = inhibition, % at 105 µM; AID 1467, 2008; Alpha-galactosidase A (Homo sapiens), P06280; 230,000 tested, under 10 active; purified enzyme, 4-MU-alpha-Gal fluorescence, pH 4.5; inconclusive = small, poorly fitted or top-dose-only inhibition, or a rising curve; inactive = flat fitted curve, though single readings scatter; no compound was filed as active;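 also: 0% = full activity with enzyme and -100% = basal without enzyme; dose as in the result columns while the protocol names 77 µM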
The depositor's hits bear a star; ? = inconclusive; . = no result given; & = joins results of further samples; [ ] = remark or other dose. This is a subset. The share of hits here may be higher or lower than overall.

miR-21 FLuc	Rango-impB inh	Rango dissoc inh	GLA inh pH 4.5	canonical_smiles
-40%	0.3%	8%	.	CCCC1Oc2ccccc2C(=O)N(CC(=O)c2ccc3c(c2)OCCO3)C1=O (stereo not given)
15%	-0.4%	12%	0	COc1ccc2cc3c(N)nn(C(=O)Cc4ccc(Cl)cc4)c3nc2c1
-1%	-0.8%	-6%	.	CCc1nonc1NC(=O)COc1ccc(Cl)c(C)c1
.	-0.5%	-1%	.	Cn1cccc1CC(=O)NNC(=O)Nc1ccccc1F
-2%	0.9%	16%	.	CCC(C)C(NC(=O)C1CCC(C)CC1)C(=O)NCCc1ccc(S(N)(=O)=O)cc1 (stereo not given)
-4%	1.4%	-3%	-10	COc1cccc(C2CC(c3ccc(C)cc3)n3nc(N)nc3N2)c1 (stereo not given)
.	11%	1%	.	CC(=O)c1ccc(O[C@@H]2O[C@H](CO)[C@@H](O)[C@H](O)[C@H]2O)cc1
-65%	0.0%	1%	4	CC(C)c1ccc(NC(=S)NN2CCOCC2)cc1

Seven of the entries above in order of the Rango dissoc inh value, falling:
mol | Rango dissoc inh
CCC(C)C(NC(=O)C1CCC(C)CC1)C(=O)NCCc1ccc(S(N)(=O)=O)cc1 (stereo not given) | 16%
COc1ccc2cc3c(N)nn(C(=O)Cc4ccc(Cl)cc4)c3nc2c1 | 12%
CCCC1Oc2ccccc2C(=O)N(CC(=O)c2ccc3c(c2)OCCO3)C1=O (stereo not given) | 8%
CC(C)c1ccc(NC(=S)NN2CCOCC2)cc1 | 1%
Cn1cccc1CC(=O)NNC(=O)Nc1ccccc1F | -1%
COc1cccc(C2CC(c3ccc(C)cc3)n3nc(N)nc3N2)c1 (stereo not given) | -3%
CCc1nonc1NC(=O)COc1ccc(Cl)c(C)c1 | -6%

(cont.)
miR-21 FLuc	Rango-impB inh	Rango dissoc inh	GLA inh pH 4.5	canonical_smiles
8%	-9.3%	1%	.	COc1ccc(-c2c(-c3ccccc3)c(C(=O)C(=O)NCCCN(C)C)n3ccc4cc(OC)c(OC)cc4c23)cc1OC
.	0.8%	-9%	.	O=C(COC(=O)CNS(=O)(=O)c1ccccc1)Nc1ncc(Cl)cc1Cl
-7%	-0.8%	-1%	-3	Cc1ccc(Cn2cnc3ccccc32)cc1C
.	5.1%	-1%	.	COCCN(C(=O)c1ccc(OCC(C)C)cc1)c1c(N)n(Cc2ccccc2)c(=O)[nH]c1=O
-1%	-0.1%	0%	1	CC(=O)C1=C(C)NC(=O)NC1c1cccc(O)c1 (stereo not given)
-4%	1.0%	-8%	.	CN(C)c1ccc(NS(=O)(=O)c2cc3c4c(c2)CC(=O)N4CCC3)cc1
-1%	-3.9%	-10%	-14	O=C1c2nc3ccccn3c2C(=O)N1Cc1ccccc1
5%	0.4%	?	3	CCOC(=O)c1cc2c(ccn2C)n1CC(=O)N1CCN(c2cccc(C(F)(F)F)c2)CC1
-4%	-4.1%	-13%	-7	CC1=Nc2ncnn2C(c2ccccc2)/C1=N\O (stereo not given)
-3%	-2.8%	0%	8	CCc1ccc(-n2nc3ccc(NC(=O)c4ccc5c(c4)OCO5)cc3n2)cc1
-44%	-0.3%	3%	.	O=C(O)c1ccc2c3n(nc2c1)-c1ccc(Cl)cc1CO3
-2%	-0.2%	7%	-2	CCOC(=O)C1C(=O)NC(N2CCN(c3ccccc3)CC2)=NC1c1ccco1 (stereo not given)
-16%	?	-23%	.	CS(=O)(=O)C1=NSC2=NC(=O)/C(=C\c3ccc(OS(=O)(=O)c4ccccc4)cc3)C(=N)N21
-10%	-2.8%	14%	6	CCCCCC[n+]1c(-c2ccccc2)csc1Nc1ccccc1
.	-1.8%	11%	.	CC1Cc2ccccc2N1C(=O)CN1C(=O)NC2(CCCCC2)C1=O (stereo not given)
-2%	-0.2%	-19%	-11	Cn1c(NCc2ccco2)nc2c1c(=O)n(Cc1ccc(Cl)cc1)c(=O)n2C
-7%	-0.4%	-17%	-12	CCOc1cc(C(=O)NC(=S)Nc2ccc(Cl)c(C(=O)O)c2)cc(OCC)c1OCC
-13%	?	?	5	COc1ccc2nc(NCCNC(=S)NCCCN3CCOCC3)c(C#N)cc2c1
.	-0.2%	4%	.	CN(C(=O)COC(=O)/C=C/c1cccs1)c1c(N)n(Cc2ccccc2)c(=O)[nH]c1=O
-2%	0.1%	1%	1[21.1 µM]	O=C(COc1ccc2ccccc2c1)N1CCN(C(=O)c2ccco2)CC1
19%	?	2%	-2	CNc1ccccc1C(C)(C)c1cc(-c2cc(C)cc(C)c2)no1
.	0.6%	11%	.	CCOC(=O)Cc1csc(SCC(=O)NC2CCC(C)CC2)n1 (stereo not given)
-73%	1.7%	-3%	.	Oc1ccccc1N1CCN(c2ccc3ccccc3n2)CC1
-18%	-0.2%	-6%	.	NS(=O)(=O)c1c(Sc2ccccc2C(=O)O)ccc2ccccc12
8%	-5.6%	?	-1	O=C(Cc1ccc(Br)cc1)Nc1ncc([N+](=O)[O-])s1
.	3.6%	2%	.	COC(=O)C1CC(C(=O)OC)C2C(C(=O)OC)CC(C(=O)OC)C12 (stereo not given)
-4%	?	-21%	3	Cc1cc(C(=O)N2CCC(C(F)(F)F)n3nccc32)on1 (stereo not given)
-6%	4.8%	22%	-7	CCOC(=O)c1ccc(NC(=O)CN2C(=O)CNC2=O)cc1
-3%	-0.3%	0%	3	O=C(C1Cc2ccccc2CN1S(=O)(=O)c1cccs1)N1CCCCCC1 (stereo not given)
5%	-1.4%	6%	1	Cc1onc(-c2c(F)cccc2Cl)c1C(=O)OCC(=O)NC(N)=O
-20%	-3.1%	12%	5	C=CCc1c(C)nc(SC)nc1Nc1ccc(C(=O)O)cc1
7%	1.9%	9%	.	Cc1cc(C)cc(NC(=O)C2CCN(S(=O)(=O)c3ccc4[nH]c(=O)ccc4c3)CC2)c1
-34%	-3.6%	-3%	2	CC1CCC/C(=C\Nc2ccc3c(c2)OCO3)C1=O (stereo not given)
-6%	1.8%	-8%	-3	CCc1sc(-c2ccccc2)nc1C(=O)OC
-1%	0.7%	-26%	-3	CSc1ccc(Cl)c(C(=O)OCC(=O)NC2CC2)c1
2%	-2.3%	7%	-20	CCC1(CC)Cc2ccccc2-c2nc(NCCCO)[nH]c(=O)c21
-2%	0.5%	18%	5	Cc1cc(C)c(C)c(S(=O)(=O)NCCCN2CCOCC2)c1C
-4%	-5.5%	-2%	-6	NS(=O)(=O)c1cccc2cccnc12
-3%	-0.9%	0%	-2	Cc1ccc(-c2nnn(CC(=O)N(Cc3ccc(F)cc3)C(C(=O)NC3CCCC3)c3ccncc3)n2)o1 (stereo not given)
-6%	0.3%	10%	-7	Cc1nc(-c2cccc(S(=O)(=O)N3CC(C)CC(C)C3)c2)cs1 (stereo not given)

Grouped by structure: the compounds so far with fluorine.
miR-21 FLuc	Rango-impB inh	Rango dissoc inh	GLA inh pH 4.5	canonical_smiles
.	-0.5%	-1%	.	Cn1cccc1CC(=O)NNC(=O)Nc1ccccc1F
5%	0.4%	?	3	CCOC(=O)c1cc2c(ccn2C)n1CC(=O)N1CCN(c2cccc(C(F)(F)F)c2)CC1
-4%	?	-21%	3	Cc1cc(C(=O)N2CCC(C(F)(F)F)n3nccc32)on1 (stereo not given)
5%	-1.4%	6%	1	Cc1onc(-c2c(F)cccc2Cl)c1C(=O)OCC(=O)NC(N)=O
-3%	-0.9%	0%	-2	Cc1ccc(-c2nnn(CC(=O)N(Cc3ccc(F)cc3)C(C(=O)NC3CCCC3)c3ccncc3)n2)o1 (stereo not given)

Remaining list, next part
miR-21 FLuc	Rango-impB inh	Rango dissoc inh	GLA inh pH 4.5	canonical_smiles
-2%	3.6%	13%	7	COC(=O)CCC(=O)Nc1c(C)n(C)n(-c2ccccc2)c1=O
-2%&-5%	-0.3%	-11%	1	COc1cccc(COC(=O)c2nn(-c3ccccc3)nc2N)c1
8%	1.7%	1%	.	COc1ccc(C(O)(C2CCCCC2)C(CN2CCCC2)c2ccccc2)cc1 (stereo not given)
-9%	0.1%	-13%	3	Cc1ccc(NC2=NCC(=O)N2c2ccc3c(c2)OCCO3)c(C)c1
3%	0.0%	10%	.	Cc1ccc(C(=O)Nc2ccccc2C(=O)N2CCN(c3ccccc3)CC2)cc1
-13%	-0.7%	11%	0	Cc1ccc(C2=NN(C(=O)CSc3nc4ncc(Cl)cc4[nH]3)C(c3ccco3)C2)cc1 (stereo not given)
.	?	?	.	Cc1ccccc1OC(=O)c1cccc(S(=O)(=O)N2CCN(C)CC2)c1
-26%	-2.4%	7%	5	CCCCn1cnc2c([nH]c3ccccc32)c1=O
-4%	4.2%	-13%	?	O=c1[nH]c(=O)n(Cc2ccccc2)c2nc(-c3ccco3)cc(C(F)(F)F)c12
-6%	7.6%	20%	4	Cc1cc(=O)n(C)c(=O)n1CCCCOc1cccc([N+](=O)[O-])c1
-4%	5.1%	11%	-19	COc1cc(OC)cc(C(=O)NC(=S)Nc2cc3oc4ccccc4c3cc2OC)c1
0%	1.0%	-13%	6	O=S(=O)(NCCc1ccncc1)c1ccc(Br)cc1
-13%	-0.3%	5%	2	Cn1c(-c2ccc3c(c2)OCO3)c(C(=O)O)c(=O)c2ccccc21
2%&-3%	3.9%	1%	.	COc1cccc(NC(=O)CCc2c(C)nc3nc(CNC(=O)c4cccc(F)c4)nn3c2C)c1
-2%	-1.8%	1%	.	CCC(C)[C@H](NC(=O)[C@H](Cc1ccccc1)n1c(=O)[nH]c2ccccc2c1=O)C(=O)N1CCC(C(=O)O)CC1 (stereo not given in full)
-3%	0.2%	3%	1	CCOC(=O)c1c(C)oc(/N=C/c2ccccc2O)c1C#N
2%	0.9%	7%	7	COC(=O)C(NS(=O)(=O)c1ccccc1Br)C(C)C (stereo not given)
0%	-4.0%	1%	.	CCOC(=O)[C@@H]1[C@H]2COc3ccccc3[C@@H]2N2C(=O)N(c3ccc(F)cc3)C(=O)[C@@]12C
-2%	?	8%	.	COc1ccccc1C(=O)N/C(=C/c1ccco1)C(=O)Nc1ccc(C(=O)O)cc1
-11%	0.1%	15%	9	COc1cccc2c1C(=O)CC2NC(=O)C(F)(F)F (stereo not given)
-31%	-0.3%	-14%	9	Nc1ccc2nc(-c3ccccc3)[nH]c2c1
-4%	2.1%	-6%	-2	NC(=O)c1c(-c2cccs2)csc1N
.	3.4%	17%	.	O=[N+]([O-])c1cc(-c2ccccc2)cc([N+](=O)[O-])c1O
1%	-0.6%	11%	.	O=C(COc1ccccc1)Nc1cccc(-c2nn[nH]n2)c1
-2%	-1.0%	-2%	.	COc1cccc(N2CCN(C(=O)c3cc4c(OC)c(OC)c(OC)cc4[nH]3)CC2)c1
1%	0.2%	4%	.	Cc1ccc(-c2nc(CS(=O)(=O)CC(=O)NC3CCC(C)CC3)c(C)o2)cc1 (stereo not given)
-29%	-0.8%	14%	.	Cc1ccc(NC(=O)CN(C)C(=O)Nc2ccc(C)cc2)cc1
4%	0.5%	-13%	2	Cc1ccc(CNC(=O)c2ccc(S(=O)(=O)Nc3c(C)n(C)n(-c4ccccc4)c3=O)cc2)cc1
-1%	-0.1%	-8%	4	CCn1c(=O)c2c3c(sc2n2c(=S)[nH]nc12)CCC3
-2%	0.1%	2%	.	Cc1cc2ncn(S(=O)(=O)c3ccc(F)cc3)c2cc1C
-34%	-2.9%	2%	-2	CC(=O)Nc1ccc(SCC(=O)Nc2sccc2C#N)cc1
-3%	-0.4%	-7%	.	COCCCn1c(-c2ccc(OC)cc2)nc2c1c(=O)[nH]c(=O)n2Cc1ccccc1
-17%	-0.4%	1%	.	N#C/C(=C\c1cccnc1)c1ccccn1
